Assay outcomes from PubChem.
AID923: qHTS Assay for Allosteric/Competitive Inhibitors of Caspase-1: Spectroscopic Profiling in AFC Spectral Region. compound fluorescence, AFC spectral region (405/520 nm); almost no hit is shown here. Potency, µM (highest dose often 57.5 µM), for the others: at the highest dose fluorescence increase, usual class: activators. 75,000 tested, 1.1% active; active means well fitted activation curve with a large enough effect; inconclusive means small, poorly fitted or top-dose-only effect;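 further: potency means the concentration at half of the fitted maximal effect; 0% is about no effect; scaled to a free AFC standard on each plate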
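Baseline compound fluorescence (AFC region, 405 nm ex/520 nm em) taken from the intercept of kinetic reads with 50 nM caspase-1 and 5 uM Ac-WEHD-AFC; normalized to an on-plate AFC standard curve; compounds titrated up to 57 uM.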
Resorufin fluor: compound fluoresces in the resorufin spectral region | max dye-equivalent concentration, M | AID 588 | 59,000 tested, 0.04% active | Compound fluorescence, resorufin region 547/598 nm, buffer; stronger effect = higher value; active = above 10 nM dye equivalent; inconclusive = 1 to 10 nM; inactive = 1 nM or less; a few of its hits are not listed in these tables; further: highest value over a series up to 38 µM
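Intrinsic fluorescence profiled in the resorufin window (ex 547 nm, em 598 nm) after 15 min at room temperature in pH 8.0 Tris buffer (100 mM); responses normalized against a six-point resorufin standard series as dye-equivalent concentration.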
TSHR ag: TSH receptor (human) agonism; 73,000 tested, 0.48% active; P16473; HEK293-CNG-TSHR cells (CNG channel as cAMP sensor), membrane potential dye, cAMP; Potency, µM (series often up to 57.1 µM), for the others: at the top dose activation, actives largely listed as activators; active = well fitted activation curve of enough size with the parental cells flat; inconclusive = any curve in the parental cells; inactive = parental cells flat and receptor cells flat or falling; further: potency means the concentration at half of the fitted maximal effect; % of control where 0% means no effect; weak receptor curves with flat parental cells got no call and are not listed
Target sequence (P16473 whole entry, looked up): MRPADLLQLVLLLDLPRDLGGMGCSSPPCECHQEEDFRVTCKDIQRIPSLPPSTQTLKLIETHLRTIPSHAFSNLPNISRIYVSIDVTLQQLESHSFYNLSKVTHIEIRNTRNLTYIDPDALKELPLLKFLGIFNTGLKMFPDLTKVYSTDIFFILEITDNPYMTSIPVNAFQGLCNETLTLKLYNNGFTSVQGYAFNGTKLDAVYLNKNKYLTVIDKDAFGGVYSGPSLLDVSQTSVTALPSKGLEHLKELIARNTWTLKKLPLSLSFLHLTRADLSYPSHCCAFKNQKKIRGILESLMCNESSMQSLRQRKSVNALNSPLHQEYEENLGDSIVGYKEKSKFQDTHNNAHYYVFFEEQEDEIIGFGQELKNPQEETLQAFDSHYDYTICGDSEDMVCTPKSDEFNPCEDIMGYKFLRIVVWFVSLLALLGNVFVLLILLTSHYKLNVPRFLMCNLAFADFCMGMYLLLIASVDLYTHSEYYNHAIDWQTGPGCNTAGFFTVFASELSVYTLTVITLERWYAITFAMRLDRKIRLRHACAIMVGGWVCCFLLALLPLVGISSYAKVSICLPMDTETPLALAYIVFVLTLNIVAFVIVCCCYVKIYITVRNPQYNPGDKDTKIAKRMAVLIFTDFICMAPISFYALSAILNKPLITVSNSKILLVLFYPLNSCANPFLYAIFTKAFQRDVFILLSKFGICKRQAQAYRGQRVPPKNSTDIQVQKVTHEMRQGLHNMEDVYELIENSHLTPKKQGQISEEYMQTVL
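HEK 293 cells stably expressing TSHR and a cAMP-gated CNG channel; parental CNG-only cells as counterscreen. Cells preloaded 60 min with membrane potential dye plus 100 uM RO 20-1724, then compound 30 min; fluorescence read at 590 nm.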
A647 autofl: compound autofluorescence in A647 spectral region; Compound fluorescence, A647 channel (570/671 nm), Tris buffer; max dye-equivalent concentration, M; 59,000 tested, under 10 active; AID 592; active means above 1 µM dye equivalent; inconclusive means 0.1 to 1 µM; inactive means 0.1 µM or less;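 further: values scaled relative to a standard on each plate; highest value over a series up to 38 µM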
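Fluorescence read (570 nm ex, 671 nm em) after 15 min RT incubation of compounds in 100 mM Tris buffer, pH 8.0; values expressed as dye-equivalent concentration against a six-point A647 standard series on each plate.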
A488 fluor: compound fluoresces in the A488 spectral region; compound autofluorescence, A488 spectral region, dye equivalency; stronger effect = higher value; max dye equivalency, M; 59,000 tested, 0.1% active; AID 591; active = above 10 nM dye equivalent; inconclusive = 1 to 10 nM; inactive = 1 nM or less; about half of its hits are not listed in these tables;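 further: highest value over a series up to 38 µM; compound alone in buffer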
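Readout is A488 dye-equivalent concentration, calibrated by a per-plate six-point Alexa 488 series. Compounds in 100 mM Tris buffer pH 8.0 were incubated 15 min at room temperature. Plates were imaged using 480 nm excitation/540 nm emission filters.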
* hit, by the source's call; i = inactive; ? = inconclusive; . = no result given; [ ] = another dose, or the depositor's remark. Not all compounds are listed; rates above refer to the full screens.

Values run as follows: AID923 | Resorufin fluor | TSHR ag | A647 autofl | A488 fluor
CCC(=O)c1ccccc1OCCN1C(=O)NC(C)(C)C1=O
 : 2.2% | i | 2% | 1e-09 | i
CC(NC(=O)CC12CC3CC(CC(C3)C1)C2)C(=O)O (centres undefined)
 : -2.7% | i | 1% | 1e-09 | i
CCOc1cccc(C(=O)Nc2ccccc2OC(F)F)c1
 : -1.6% | i | . | 3.9e-08 | i
CCC/C=C(\CCC)C(NC(=O)C(C)(C)C)c1ccc(C(=O)OC)cc1 (centres undefined)
 : -2.5% | . | ? | . | .
CCOC(=O)N1CCN(Cc2cccs2)CC1
 : -0.2% | . | -3%[11.4 µM] | . | .
Cc1ccc(N)cc1O
 : 17% | . | ? | . | .
COc1ccccc1N(C(=O)c1ccco1)C(C(=O)NC1CCCC1)c1cccnc1 (centres undefined)
 : -0.8% | i | ? | 3e-08 | i
C=C(C)C(N)=O
 : -3.7% | . | 4% | . | .
Cc1ccccc1CS(=O)(=O)c1nnc([C@H](CC(C)C)NC(=O)OC(C)(C)C)o1
 : 0.4% | i | 13% | 3.4e-08 | i
O=C(c1cccc(C(=O)N2CCN(c3ccccc3F)CC2)n1)N1CCN(c2ccccc2F)CC1
 : -0.6% | i | 21% | 1.1e-08 | i
CCCCn1c(=O)c2c(c3ccccc31)OCC(=O)N2
 : -2.1% | i | -10% | 2.6e-08 | i
Cc1cc(C)c2c(n1)sc1c(N3CCOCC3)ncnc12
 : 2.6% | i | 8% | 3.1e-09 | i
CCOC(=O)N1CCN(CC(=O)Nc2ccc(C)cc2)CC1
 : -1.1% | . | 10% | . | .
COc1ccc2[nH]cc(CCNc3ncncc3-c3cccnc3)c2c1
 : 2.5% | i | -3% | 1.3e-08 | i
Cc1csc(NC(=O)CSc2nnc3ncccn23)n1
 : -2.0% | i | -6% | 1.9e-08 | i
CCCc1ccc(-c2ccc(C(=O)O)cc2)nc1
 : 0.1% | . | -16% | . | .
COc1ccc(-n2c(SCC(=O)c3c(N)n(C)c(=O)n(C)c3=O)nc3ccccc32)cc1
 : 0.8% | i | -2% | 4e-09 | i
Cc1onc(-c2ccccc2)c1C(=O)Nc1nc2c(s1)CCCC2
 : -1.4% | i | 1% | 1.3e-08 | i
O=C(Nc1ccc(-c2nnc(-c3ccccc3)o2)cc1)C(F)(F)F
 : -0.3% | . | -1% | . | .
O=C1CN(CC(=O)N2CCOCC2)c2ccccc2O1
 : 3.9% | i | 2% | 1.6e-08 | i
Cn1c(C(=O)NCC2CCCO2)cc2oc3ccccc3c21 (centres undefined)
 : -0.8% | . | 5% | . | .
O=C(CSc1nc2ccccc2o1)N1CCN(C(=O)c2ccco2)CC1
 : -0.2% | i | 1% | 1.3e-09 | i
CCOC(=O)c1cnn(-c2cc(C)c3cc(C)cc(C)c3n2)c1N
 : -2.4% | i | -2% | 5.4e-08 | i
CC(=O)N1CCN(c2ccc(Oc3nnnn3-c3ccccc3)cc2)CC1
 : -0.6% | i | -3%[11.4 µM] | 4.1e-09 | i
CCC(=O)Nc1ccc2c(c1)ncn2-c1ccccc1OC
 : 1.2% | i | 5% | 1e-09 | i
COc1ccc(NC(=O)CSc2nnc(-c3ccccc3)n2Cc2ccco2)c(OC)c1
 : -1.6% | i | 28% | 1e-09 | i
COC(=O)c1ccc(COC(=O)c2ccc(N(C)C)cc2)cc1
 : -0.8% | i | ? | 3.3e-08 | i
Cc1noc(C)c1S(=O)(=O)N1CCC(C(=O)N2CCN(C3CCCC3)CC2)CC1
 : -0.1% | i | 6% | 7.5e-09 | i
Cc1cccc(C)c1OCc1nnc(SCC(=O)Nc2nccs2)n1-c1ccccc1
 : 0.3% | i | ? | 1e-09 | i
COc1ccc(N(CC(=O)N2CCC(C)CC2)S(=O)(=O)c2c(C)nn(C)c2C)cc1
 : 4.2% | . | -1% | . | .
O=C(Nc1ccc(S(=O)(=O)N2CCCC2)cc1Cl)C1=COCCO1
 : 0.2% | i | 2% | 1e-08 | i
O=C(NCc1ccco1)C1CCN(C(=O)c2cc3sccc3n2Cc2ccc(Cl)cc2)CC1
 : 1.3% | i | ? | 2.9e-08 | i
CCOC(=O)Cc1nnc(NC(=O)c2cccc(OCC)c2)s1
 : 1.7% | i | 5% | 2.4e-08 | i
CC(=O)N1CCN(C(C)=O)C1c1ccccc1
 : -0.5% | . | 2%[11.4 µM] | . | .
O=C(NCC1CCCO1)C1CCCN(Cc2cnn(-c3ccccc3)c2-n2cccc2)C1 (centres undefined)
 : 2.0% | i | 12% | 1e-09 | i
CNC(=O)CSc1nc2c(c(=O)n(C)c(=O)n2C)n1Cc1ccc(C)cc1
 : 1.5% | i | 7% | 4e-08 | i
Cc1cccc(NC(=O)CSCc2c(C)noc2C)c1C
 : -1.5% | i | . | 1e-09 | i
O=C(Nc1ccc(F)cc1)N(Cc1ccco1)Cc1cc2cc3c(cc2[nH]c1=O)OCO3
 : 0.1% | i | ? | 1e-09 | i
CN(c1ccc(C(=O)O)cc1)S(=O)(=O)c1ccccc1
 : 2.0% | . | -2% | . | .
O=C(CN1C(=O)C2CC=CCC2C1=O)Nc1ccc(S(=O)(=O)NC2=NCCCCC2)cc1 (centres undefined)
 : 2.7% | i | . | 1.7e-08 | i
CCc1ccc(C2CC(c3cccc(OC)c3)n3nc(N)nc3N2)cc1 (centres undefined)
 : -2.0% | . | -5% | . | .
C=CCNC(=O)C12CC3CC(C1)CC(C(=O)NCC=C)(C3)C2
 : -1.3% | i | -7% | 1e-09 | i
CCOC(=O)C1CCN(S(=O)(=O)c2cccc(-c3cn4ccccc4n3)c2)CC1
 : 0.3% | i | . | 5.3e-09 | i
CCCCCCCC#Cc1ccccc1C(NC(=O)OC)C(C(=O)OC)C(=O)OC (centres undefined)
 : -0.2%[11.5 µM] | . | 12%[11.4 µM] | . | .
O=C(O)c1ccc2c(c1)C(=O)N(C(Cc1ccccc1)C(=O)O)C2=O (centres undefined)
 : 3.3% | . | -1% | . | .
Cn1cc(C(=O)c2ccccc2)cc1-c1nc2ccccc2n1C
 : -1.2% | i | 35% | 7.6e-09 | i
COc1ccc(NC(=O)CN2C(=O)C(C)Oc3ccccc32)cc1 (centres undefined)
 : 0.9% | i | 0% | 1.3e-09 | i
N#CCCN(CCC#N)c1nncs1
 : 0.1% | i | ? | 2.4e-08 | i
C/C(=C\C(=O)Nc1cc(C)on1)c1ccccc1
 : -0.5% | i | -4% | 8.7e-09 | i
CCOC(=O)N1CCN(C(=O)c2ccccc2CCc2ccccc2)CC1
 : -0.6% | i | . | 6.1e-09 | i
Cc1cccc2cc(CN(Cc3ccc(F)cc3)C(=O)N(C)C)c3nnnn3c12
 : 0.8% | i | ? | 3.3e-09 | i
COc1ccc(OC)c(CN2CCN(c3ccccc3OC)CC2)c1
 : 0.4% | . | ? | . | .
CC(C)Nc1ncnc2c1cnn2-c1ccc(Cl)cc1
 : 3.5% | . | -10% | . | .
COc1ccc(C2C(C(=O)Nc3ccccc3OC)=C(C)Nc3ncnn32)cc1 (centres undefined)
 : 0.7% | . | 5% | . | .
O=c1[nH]n(-c2ccccc2)c(=O)c2ccccc12
 : 1.1% | . | ? | . | .
CCc1ccccc1NC(=O)CN(c1cccc(OC)c1)S(C)(=O)=O
 : -1.8% | . | 12%[11.4 µM] | . | .
COc1ccc(-n2c(=O)c(-c3cc(F)cc(F)c3)nc3cncnc32)cc1
 : 2.7% | i | ? | 5.7e-09 | i
CC(Sc1nnnn1-c1ccccc1)C(=O)Nc1ccc(Cl)cn1 (centres undefined)
 : -1.0% | i | ? | 1e-09 | i
Cc1cccc(N2CCN(C(=O)CCCOc3ccccc3)CC2)c1C
 : -0.2% | i | ? | 4.1e-09 | i
CC(=O)c1cc(C)ccc1OC(=O)c1ccco1
 : 2.5% | . | 3% | . | .

Other results follow:
Values run as follows: AID923 | Resorufin fluor | TSHR ag | A647 autofl | A488 fluor
Clc1ccc(Cn2ncc3c(N4CCOCC4)ncnc32)cc1
 : 0.0% | i | -5% | 1.5e-08 | i
CCN(CC)S(=O)(=O)c1ccc(C(=O)NCc2n[nH]c(=S)n2-c2ccccc2OC)cc1
 : -0.6% | i | ? | 4.7e-09 | i
COc1cc(C(=O)N2CCC(NC(=O)C(Cc3ccccc3C)NC(C)=O)CC2)cc(OC)c1OC (centres undefined)
 : -0.5% | i | -4% | 7.3e-09 | i
COc1ccc(CNC(=O)CSc2nnc(C)s2)cc1
 : -0.6% | . | -1% | . | .
CCOC(=O)CNC(=O)CSc1nc2cccnc2n1C1CCCCC1
 : 1.0% | i | -3% | 1.9e-08 | i
NC(=O)Cn1cnc(-c2ccccc2)c1
 : -0.2% | i | 3% | 5.5e-09 | i
COc1ccc(C)cc1-n1nnnc1SC/C(O)=C(\C#N)c1nc2ccccc2[nH]1
 : -1.7% | i | 19% | 6.4e-09 | i
Fc1ccccc1CSc1nc2ncccc2[nH]1
 : -0.3% | . | -2% | . | .
Cc1cc(C)n(C(=O)Cc2cn3ccsc3n2)n1
 : 2.0% | i | 2% | 3.1e-09 | i
COc1ccc(C(C(O)C(=O)c2c[nH]c3ccccc23)N2CCN(c3ccc(OC)cc3)CC2)cc1 (centres undefined)
 : 0.4% | i | -5%[11.4 µM] | 1e-09 | i
COc1cc(C(=O)NCCC(=O)NCCN2CCCCCC2)cc(OC)c1OC
 : 2.3% | i | 12% | 2.4e-08 | i
COc1ccc(S(=O)(=O)N2CCN(C(=O)c3cccs3)CC2)cc1
 : -0.7% | . | 7% | . | .
CCOC(=O)CSC1=C(C#N)C(c2ccc(F)cc2)C(C(C)=O)=C(C)N1 (centres undefined)
 : 4.4% | i | -24% | 1e-09 | i
Cc1ccc(-c2nc(=S)c3c(n2Cc2ccco2)CCCC3)cc1
 : 3.0% | . | ? | . | .
CCC[C@@H]1C[C@@]1(CCC)C(NC(=O)c1ccco1)c1ccc(Cl)cc1 (some centres undefined)
 : 0.0% | . | ? | . | .

Single records, from the list above. Order of values: AID923, Resorufin fluor, TSHR ag, A647 autofl, A488 fluor
`COc1cc(C(=O)N2CCC(NC(=O)C(Cc3ccccc3C)NC(C)=O)CC2)cc(OC)c1OC` (centres undefined) across the screens: -0.5%, i, -4%, 7.3e-09, i
`Cc1ccc(-c2nc(=S)c3c(n2Cc2ccco2)CCCC3)cc1` across the screens: 3.0%, ., ?, ., .
`Cc1cc(C)n(C(=O)Cc2cn3ccsc3n2)n1` across the screens: 2.0%, i, 2%, 3.1e-09, i
`Fc1ccccc1CSc1nc2ncccc2[nH]1` across the screens: -0.3%, ., -2%, ., .

2 records drawn at random from the list so far:
Values run as follows: AID923 | Resorufin fluor | TSHR ag | A647 autofl | A488 fluor
CCOC(=O)N1CCN(Cc2cccs2)CC1
 : -0.2% | . | -3%[11.4 µM] | . | .
COc1ccc(OC)c(CN2CCN(c3ccccc3OC)CC2)c1
 : 0.4% | . | ? | . | .

Additional compounds:
Values run as follows: AID923 | Resorufin fluor | TSHR ag | A647 autofl | A488 fluor
NC1=NC2(CCCCC2)n2c(nc3ccccc32)N1
 : 0.8% | i | -14% | 1e-09 | i
COc1ccccc1NC(=O)c1oc2ccccc2c1NC(=O)c1ccco1
 : 2.1% | i | ? | 2e-08 | i
COCCn1c(=O)[nH]c2cc(C(=O)NC3CCCCCC3)ccc2c1=O
 : -1.0% | . | -2%[11.4 µM] | . | .
C=CCSC1=N/C(=C\c2ccsc2)C(=O)S1
 : 1.7% | . | 7% | . | .
CCC1(C(=O)OC)NC(c2ccco2)C2C(=O)N(c3ccc(C)cc3)C(=O)C21 (centres undefined)
 : 1.7% | i | 1% | 1.5e-09 | i
